UCH37 DUB inh: inhibitors of human deubiquitinating enzyme UCH37; Q9Y5K5; purified proteasome/UCH37, Ub-AMC cleavage fluorescence; inhibition, % (concentration not given with the values); actives 0.33% (n = 330,000); AID 588478;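 active = mean of two replicates above 20%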;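 note: 0% = compound-free wells with enzyme and 100% = wells lacking proteasome; stock transfer was 100 nL into about 20 µL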
Target sequence (Q9Y5K5 whole entry, looked up): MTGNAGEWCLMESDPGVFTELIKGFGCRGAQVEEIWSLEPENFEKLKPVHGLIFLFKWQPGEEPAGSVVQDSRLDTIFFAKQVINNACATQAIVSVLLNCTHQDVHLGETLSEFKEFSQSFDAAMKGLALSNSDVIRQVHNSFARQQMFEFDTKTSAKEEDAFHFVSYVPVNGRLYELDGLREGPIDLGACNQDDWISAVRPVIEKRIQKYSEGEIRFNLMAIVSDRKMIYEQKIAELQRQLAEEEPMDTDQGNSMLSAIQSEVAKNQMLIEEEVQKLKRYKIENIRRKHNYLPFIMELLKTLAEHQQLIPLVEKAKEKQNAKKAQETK
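Material: Human UCH37 enzyme supplied as purified proteasome complex | Schedule: 30 min compound-proteasome preincubation then 25 min substrate reaction, room temperature | Detection: AMC fluorescence from Ub-AMC cleavage, excitation 355 nm, emission 460 nm | Benchmarks: Wells without proteasome as full block, compound-free enzyme plus substrate as uninhibited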
B2AR ag: human beta-2 adrenergic receptor agonism by FAP | P07550 | Am2.2-beta2AR cells, FAP receptor internalization, flow cytometry; reference of the scale not given here | response, % (no concentration beside the values) | actives 0.43% (n = 340,000);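 active = response above a set limit, near 3 SD of response in nonfluorescent compounds, cut at about 42% in these data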;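 note: stock transfer was 100 nL into about 11 µL; a reference agonist was the positive control; negative values mostly stem from fluorescent compounds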
Target sequence (P07550 whole entry, looked up): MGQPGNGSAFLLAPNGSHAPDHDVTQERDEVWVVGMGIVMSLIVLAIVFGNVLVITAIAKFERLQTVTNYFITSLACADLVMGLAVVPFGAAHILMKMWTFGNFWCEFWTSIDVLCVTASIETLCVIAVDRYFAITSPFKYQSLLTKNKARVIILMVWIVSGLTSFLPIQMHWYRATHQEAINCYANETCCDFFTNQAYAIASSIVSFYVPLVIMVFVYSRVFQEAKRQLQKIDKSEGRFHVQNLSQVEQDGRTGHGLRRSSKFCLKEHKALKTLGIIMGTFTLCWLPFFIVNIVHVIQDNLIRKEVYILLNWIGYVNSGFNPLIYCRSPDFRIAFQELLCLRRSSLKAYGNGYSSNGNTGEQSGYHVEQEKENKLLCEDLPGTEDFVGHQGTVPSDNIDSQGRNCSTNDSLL
Numbers without * were called inactive. These rows are one share of the data (hit frequency here may not be typical).

Results follow in this order: UCH37 DUB inh, B2AR ag
COc1ccc2[nH]c3c(c2c1)CCN1C(=O)C(CC(=O)NCC24CC5CC(CC(C5)C2)C4)C[C@H](C(=O)N2CCCCC2)[C@@]31C (stereo not given in full)
 : 1.6, 6.0
CC(C)(C)c1ccc(C2(C)NC(=O)N(CC(=O)NC3CCS(=O)(=O)C3)C2=O)cc1 (stereo not given)
 : 2.9, -6.3
CCc1ccccc1NC(=O)CN1CCN(C(=O)CN2C(=O)NC3(CCCCC3C)C2=O)CC1 (stereo not given)
 : 4.8, -2.3
O=C1c2ccccc2[C@@H]2C[C@@H](O)[C@H](Nc3ccccc3Cl)CCN12
 : 0.3, 1.8
CC(NC(=O)CN1C(=O)NC2(CCc3ccccc32)C1=O)c1ccc2c(c1)OCCO2 (stereo not given)
 : 0.6, 0.4
CN(CCc1ccccc1)C(=O)c1ccc(NC(=O)Cc2cccc(NC(=O)C3CCN(C(=O)C4CCCCC4)CC3)c2)cc1
 : 0.5, -14.0
O=C(CN1CCCSc2ccccc21)N1CCN(S(=O)(=O)c2ccccc2)CC1
 : -1.5, 4.0
Cc1ccc(C2/C(=C(\O)c3c(C)nc4c(C)cccn34)C(=O)C(=O)N2CCN(C)C)o1 (stereo not given)
 : 6.0, -1.6
CC1=CC2=NC(=O)C(c3ccccc3)C(=O)N2C=C1 (stereo not given)
 : 2.7, -0.9
O=C1CSC(=S)N1Nc1ccccc1
 : -1.3, -1.2
CCN(CC(=O)Nc1ccc2c(c1)OCCO2)C(=O)C(C)Oc1ccc(F)cc1 (stereo not given)
 : -3.9, 3.9
O=C(CC1Sc2ccccc2NC1=O)NNc1ccc(F)cc1 (stereo not given)
 : 5.7, -3.0
CCC1(CC)C(=O)NC(=O)NC1=S
 : 1.0, -3.9
Cc1ccc(S(=O)(=O)N2CCOCC2)cc1NC(=O)COC(=O)c1cccc(Cl)c1Cl
 : 4.2, -3.9
CC(=O)Oc1ccc(C23c4ccccc4C2(OC(C)=O)c2cc(OC(C)=O)ccc23)cc1 (stereo not given)
 : -174.1, -123.8
CC(C)C1(C2CCCC2)NC(=O)NC1=O (stereo not given)
 : 0.7, -2.4
Cc1cc(C(=O)NN=C2CC(=O)CC(C)(C)C2)c(C)o1
 : 0.9, -6.5
CC1CCN(C(=O)c2ccc(NC3=C(Cl)C(=O)N(Cc4ccccc4)C3=O)cc2)CC1
 : 4.7, 25.4
Cc1cc([N+](=O)[O-])c2ccccc2c1NS(=O)(=O)c1ccccc1
 : -0.5, -0.1
O=C(CC1SC(N2CCCC2)=NC1=O)Nc1ccc(C(=O)NCCOc2ccccc2F)cc1 (stereo not given)
 : 0.4, -28.6
O=C(NNC(=O)c1ccccc1F)c1ccc(NS(=O)(=O)c2ccc(F)cc2)cc1
 : 2.3, -5.6
O=C(NCCc1cccc(Cl)c1)c1cccc(-n2cnnn2)c1
 : 4.8, -2.4
Cc1nc2[nH]c(=S)[nH]c2c(=O)[nH]1
 : 0.0, -9.5
COc1ccc(C)cc1CN(C)c1ccc(S(=O)(=O)N2CCN(C)CC2)cn1
 : 1.4, -0.1
CN(Cc1ccccc1)C(=O)COC(=O)c1ccccc1SCC(=O)N1CCCC1
 : 3.7, -5.0
CCN(C(=O)COC(=O)CNC(=O)c1ccc2ccccc2c1)c1c(N)n(Cc2ccccc2)c(=O)[nH]c1=O
 : -0.1, -0.7
O=C(COC(=O)/C=C/c1cccc(Br)c1)Nc1cccc(S(=O)(=O)NC2=NCCC2)c1
 : 3.2, -8.5
CC1Cc2ccccc2N1S(=O)(=O)c1cccc(C(=O)NCC(c2ccco2)N2CCCC2)c1 (stereo not given)
 : 4.3, -1.9
CCN(c1ccccc1)S(=O)(=O)c1ccc(OC)c(NC(=O)c2c(C)noc2C)c1
 : 2.3, 3.4
CN(C(=O)CSc1nc2ccccc2o1)C1CCCCC1
 : 1.0, -5.6
CC(=O)NC(Cc1c[nH]c2ccccc12)C(=O)OCC(=O)N1CCN(S(=O)(=O)c2ccc(Cl)cc2)CC1 (stereo not given)
 : -1.6, 23.1
CCCCn1c(N)c(N(CCC(C)C)C(=O)c2ccccc2-n2cnnn2)c(=O)[nH]c1=O
 : 1.4, 0.6
O=C(C1CCN(S(=O)(=O)c2ccccc2F)CC1)N1CCCC1
 : 0.6, -11.3
CC(=O)c1ccccc1NC(=O)COC(=O)C1=NN(c2ccccc2)C(=O)CC1
 : 1.1, -7.3
CC(=O)Nc1ccc2c(c1)C(N1CC3CCC(CC3)C1)c1ccccc1-2 (stereo not given)
 : 4.6, 42.6*
CN(C)S(=O)(=O)c1ccc(Cl)c(C(=O)OCC(=O)NNC(=O)c2cccs2)c1
 : 2.8, 2.9
O=C1OC(Oc2ccc(Br)cc2)(c2ccccc2)c2ccccc21 (stereo not given)
 : 3.1, 9.3
N#Cc1ccc(S(=O)(=O)NC[C@H]2O[C@@H](n3cnc4c(N)ncnc43)[C@H](O)[C@@H]2O)cc1
 : -0.2, -3.0
Cn1c(SCC(=O)Nc2ccc3nc(SCC(=O)N4CCCC4)sc3c2)nnc1-c1ccc(N)cc1
 : 4.4, 7.0
O=C1NC(=S)S/C1=C\c1cccc([N+](=O)[O-])c1
 : 9.4, 7.9

Single values from above:
For B2AR ag, Cn1c(SCC(=O)Nc2ccc3nc(SCC(=O)N4CCCC4)sc3c2)nnc1-c1ccc(N)cc1 has the entry 7.0
For B2AR ag, O=C1NC(=S)S/C1=C\c1cccc([N+](=O)[O-])c1 has the entry 7.9
For B2AR ag, CN(Cc1ccccc1)C(=O)COC(=O)c1ccccc1SCC(=O)N1CCCC1 has the entry -5.0
For B2AR ag, CN(C(=O)CSc1nc2ccccc2o1)C1CCCCC1 has the entry -5.6
For UCH37 DUB inh, O=C1OC(Oc2ccc(Br)cc2)(c2ccccc2)c2ccccc21 (stereo not given) has the entry 3.1
For B2AR ag, CC(=O)NC(Cc1c[nH]c2ccccc12)C(=O)OCC(=O)N1CCN(S(=O)(=O)c2ccc(Cl)cc2)CC1 (stereo not given) has the entry 23.1
For UCH37 DUB inh, O=C(C1CCN(S(=O)(=O)c2ccccc2F)CC1)N1CCCC1 has the entry 0.6

Next results follow.
Results follow in this order: UCH37 DUB inh, B2AR ag
CC(C)(C)c1ccc(C(=O)OCC(=O)NC2CC2)cc1
 : 0.8, 1.0
COC(=O)[C@H](CC(C)C)NC(=O)Cn1cnc(C(=O)Nc2ccc(C)c(C)c2)n1
 : 1.6, 11.9
CC(=O)Nc1cc(F)c2c(c1F)Cc1cc(F)ccc1-2
 : 3.1, -0.8
O=C(COC(=O)/C=C/c1ccccc1[N+](=O)[O-])NNC(=O)c1ccc(F)cc1
 : 2.8, 0.6
COc1ccccc1CNC(=O)COC(=O)C1CCN(S(=O)(=O)c2c(Cl)cccc2Cl)CC1
 : 6.4, 7.4
O=C(NN=Cc1ccc2c(c1)OCO2)NN=Cc1ccc2c(c1)OCO2
 : 3.6, 7.8
CCCN(CC(=O)Nc1ccccc1C)C(=O)C1CC(=O)N(c2ccc(C)cc2)C1 (stereo not given)
 : 2.7, 2.2
O=C1C(O)CCN1C1CCCCC1 (stereo not given)
 : 0.7, 0.2
Cc1ccc(NC(=O)c2n[nH]c(=O)c3ccccc23)cc1S(=O)(=O)N1CCOCC1
 : 1.2, 5.5
NS(=O)(=O)c1ccc(NC(=O)c2ccc(-c3ccccc3)cc2)cc1
 : 4.4, 1.4
CC(C(=O)NCC1CCCCC1)N1CCN(S(=O)(=O)c2cccs2)CC1 (stereo not given)
 : -0.2, -5.0
NC(=O)c1ccc(NC(=O)COC(=O)CCCOc2ccccc2)cc1
 : 5.6, -4.3
CCN1C[C@@H]2[C@@H]3C(=O)N(Cc4ccccc4)C(=O)[C@@H]3[C@](CC)(C1=O)N2C(=O)c1ccc(F)cc1
 : 2.7, -0.7
CC(C)C(NC(=O)C1(NC(=O)OCc2ccccc2)CCCC1)C(=O)O (stereo not given)
 : 1.8, 4.7
Clc1ccc(C=NN2CCCCCC2)cc1
 : -1.9, -0.3
Cc1ccc(COC(=O)c2cccc(S(=O)(=O)N3CCCCC3)c2)cc1
 : 2.5, 11.1
Cc1nn2c(-c3ccc(Cl)cc3)ccnc2c1-c1ccccc1
 : 2.4, -3.2
Cc1ccc(C(C)(C)C)cc1S(=O)(=O)Nc1cccc(C(=O)N2CCN(c3ccccn3)CC2)c1
 : 3.2, -0.3
COc1ccc(CN(C)C(=O)CSc2nnc(C3CC3)n2C2CC2)cc1
 : -1.2, -3.3
O=C(CCCC(=O)N1CCc2ccccc21)N1CCc2ccccc21
 : -0.6, 1.0
Cc1nn(C2CCS(=O)(=O)C2)c2nc(C3CC3)cc(C(=O)Nc3ccc(C(N)=O)cc3)c12 (stereo not given)
 : -4.3, -3.0
O=C(NCCc1ccc(F)cc1)c1ccc(S(=O)(=O)N2CCCCC2)cc1
 : 3.2, -0.1
COc1ccc(C(=O)c2ccc(Br)cc2)c(OC)c1OC
 : 5.4, -5.3
CCN1C[C@@H]2[C@@H]3C(=O)N(Cc4ccccc4)C(=O)[C@@H]3[C@](Cc3ccccc3)(C(=O)OC)N2C1=NC1CCCCC1
 : -0.2, 16.0
CCOC(=O)C1Oc2ccccc2C(c2ccc(F)cc2)=C1C(=O)OC (stereo not given)
 : 0.0, 3.5
N#C/C(=C\c1ccc(C(=O)O)cc1)c1nc2sc3c(c2c(=O)[nH]1)CCCC3
 : 2.9, 11.0
Cc1cccc2sc(NC(=O)CCNC(=O)c3ccco3)nc12
 : 5.3, -0.8
CCCn1c(=O)c2ccccc2n2c(SCC(=O)c3cc(C)n(CCOC)c3C)nnc12
 : -13.6, 5.8
Cc1nc2c(sc3nc4c(cc32)COC(C)(C)C4)c(=O)o1
 : -14.4, 4.7
O=C(COC(=O)CSc1ccc(Cl)cc1)NCCc1ccccc1
 : -0.3, -8.0
O=C(c1cc(C2CC2)nn1-c1ccccc1)N1CCN(c2ccc(O)cc2)CC1
 : 4.5, 18.8
O=C1N[C@H]2CC=C[C@H]2Nc2ccccc21
 : 1.6, -2.8
COc1cc2c(cc1NC(=S)NC(=O)/C=C/c1ccc(OC)c(OC)c1)oc1ccccc12
 : 2.1, 32.4
COc1cc(OC)cc(C(=O)NC(C(=O)Nc2ccc(N3CCOCC3)cc2)C(C)C)c1 (stereo not given)
 : 0.6, -1.2
O=C(c1ccccc1)N(C(=O)c1ccccc1)N1CCCC1
 : -0.1, -5.1
O=S(=O)(Nc1cccc(-n2cnnn2)c1)c1ccc(F)cc1
 : 2.9, 7.1
O=C(COC(=O)c1ccc(O)cc1O)NC(=O)NCc1ccccc1
 : 3.2, 3.3
CC(=O)Nc1ccc(S(=O)(=O)N2CCN(S(=O)(=O)c3cccs3)CC2)cc1
 : -0.5, -5.8
O=C(COC(=O)Cn1cc(C(F)(F)F)ccc1=O)Nc1ccc(Br)cc1F
 : 2.9, -3.9
CCOc1ccc(NC(=O)CN2C(=O)/C(=C3\SC(=S)N(C4CCS(=O)(=O)C4)C3=O)c3ccccc32)cc1 (stereo not given)
 : 2.3, -5.1
O=C1CN(C(=O)COc2ccc(Cl)c(Cl)c2)c2ccccc2N1
 : 5.4, 9.2
Cc1ccc(S(=O)(=O)N2CCOCC2)cc1C(=O)Nc1cc(Cl)ccc1N1CCOCC1
 : -1.1, 2.4
COc1cc(OC)c2c(-c3cccc(-c4cccc(N)c4)c3)cc(=O)oc2c1
 : 0.2, 35.0
COc1ccc(CCN(C)C(=O)COC(=O)/C=C/c2ccc(C)o2)cc1OC
 : 3.2, 6.1
CC1CCCN(C(=O)CN2C(=O)NC3(CCCCC3C)C2=O)C1 (stereo not given)
 : 2.9, 1.4
CC[C@@]1(C(=O)OC)N[C@H](CN(C)S(=O)(=O)c2ccc(C(C)(C)C)cc2)[C@@H]2C(=O)N(C)C(=O)[C@@H]21
 : 4.1, 1.2
CC(=O)Nc1ccc(S(=O)(=O)NN=Cc2ccc(Cl)c(Cl)c2)cc1
 : 2.5, -4.8
CCOc1ccc(S(=O)(=O)N2CCN(C(=O)c3oc4ccccc4c3C)CC2)cc1
 : -0.4, 1.9
O=C(NCCN1CCOCC1)c1cccc(S(=O)(=O)Nc2cc(Cl)ccc2Cl)c1
 : 3.3, 2.9
COc1ccccc1C(=O)NCCC(=O)N1CCN(C(=O)c2ccco2)CC1
 : 3.3, -10.1
CCN1C(=O)[C@H]2[C@H]3CN=C(SCC(=O)c4ccccc4)N3[C@@](CC)(C(=O)OC)[C@H]2C1=O
 : 3.2, -3.6
C[C@H](CO)N1C[C@H](C)[C@@H](CN(C)Cc2ccc(-c3ccccc3)cc2)Oc2ccc(NC(=O)Cn3cnnn3)cc2C1=O
 : 2.7, 12.1
C=CCOc1ccc(Br)cc1/C=C1/SC(=Nc2ccc(C(=O)O)cc2)NC1=O
 : -1.1, 5.7
CCC(C)c1ccccc1N1CC(C(=O)N2CCN(c3ccccc3)CC2)CC1=O (stereo not given)
 : -0.2, -0.7
O=C1OCCN1C(=O)[C@H]1[C@H](c2ccc([N+](=O)[O-])cc2)C(c2ccc(F)cc2)=NN1c1ccc(Br)cc1
 : 3.7, -1.6

Exported comma-delimited: 4 of the compounds above
SMILES,UCH37 DUB inh,B2AR ag
O=C1OCCN1C(=O)[C@H]1[C@H](c2ccc([N+](=O)[O-])cc2)C(c2ccc(F)cc2)=NN1c1ccc(Br)cc1,3.7,-1.6
CC(C)(C)c1ccc(C2(C)NC(=O)N(CC(=O)NC3CCS(=O)(=O)C3)C2=O)cc1 (stereo not given),2.9,-6.3
CC(C)(C)c1ccc(C(=O)OCC(=O)NC2CC2)cc1,0.8,1.0
O=C(C1CCN(S(=O)(=O)c2ccccc2F)CC1)N1CCCC1,0.6,-11.3

Assay outcomes as filed in PubChem BioAssay.
